gsp ag: activates gsp, the McCune-Albright syndrome mutation; gsp mutant cells, cAMP HTRF, 30 min; control for the full effect not named in the record; Potency, µM (doses to about 76.9 µM), inactives show at the highest dose activation (cAMP increase), hits mostly activators; 340,000 tested, 0.13% active; active = well fitted activation curve with a large enough effect; inconclusive = small, poorly fitted or top-dose-only effect, or another doubt; inactive = no such curve, though single readings can be large or run the other way; cell line not stated here;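 further: phosphodiesterase inhibitor Ro 20-1724 added with compounds to block cAMP breakdown; potency means the concentration at half of the fitted maximal effect; nearly all actives have a fitted effect of over 60% in size; about a fifth of the inactives were tested at one dose only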
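Cells in DMEM/10% FBS with G418 were pretreated with compounds in DMSO plus […] (300 uM stock) for 30 min at 37C. cAMP was measured by HTRF (cAMP-d2 plus anti-cAMP antibody-K) after 30 min at room temperature.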
TRPV1 PAM: human TRPV1 potentiation | Q8NER1 | TRPV1-expressing cells, Fluo-8 calcium influx, capsaicin EC20 potentiation; host cell line not named in the record; control for the full effect not named in the record | potentiation, % at 8.33 µM | 320,000 tested, 0.02% active | AID 540277; active means potentiation above 80%; inconclusive means 30% to 80%; inactive means below 30%; further: 0% is about no effect
Target sequence (Q8NER1 whole entry, looked up): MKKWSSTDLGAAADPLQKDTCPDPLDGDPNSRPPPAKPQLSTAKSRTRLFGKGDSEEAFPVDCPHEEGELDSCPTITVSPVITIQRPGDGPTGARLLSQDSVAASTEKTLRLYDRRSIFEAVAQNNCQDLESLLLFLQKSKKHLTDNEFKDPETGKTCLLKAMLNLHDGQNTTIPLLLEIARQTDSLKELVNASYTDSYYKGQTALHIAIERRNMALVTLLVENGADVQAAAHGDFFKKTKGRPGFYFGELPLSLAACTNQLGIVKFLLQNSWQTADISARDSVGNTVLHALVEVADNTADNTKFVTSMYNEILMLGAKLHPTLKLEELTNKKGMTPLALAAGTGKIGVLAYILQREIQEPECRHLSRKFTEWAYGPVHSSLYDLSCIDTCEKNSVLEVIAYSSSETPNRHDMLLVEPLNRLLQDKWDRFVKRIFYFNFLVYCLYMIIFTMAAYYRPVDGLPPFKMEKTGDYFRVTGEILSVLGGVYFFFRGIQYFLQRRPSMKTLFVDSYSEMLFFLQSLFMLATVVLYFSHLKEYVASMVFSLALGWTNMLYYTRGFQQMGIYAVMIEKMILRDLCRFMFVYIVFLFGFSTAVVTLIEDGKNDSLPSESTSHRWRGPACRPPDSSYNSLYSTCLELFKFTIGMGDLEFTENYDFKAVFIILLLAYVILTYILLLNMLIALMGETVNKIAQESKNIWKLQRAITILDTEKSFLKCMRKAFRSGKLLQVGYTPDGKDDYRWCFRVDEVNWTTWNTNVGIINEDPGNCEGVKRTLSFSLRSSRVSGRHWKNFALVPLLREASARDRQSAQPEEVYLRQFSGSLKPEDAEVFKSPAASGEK
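Fluo-8 calcium influx in TRPV1-expressing cells, kinetic read (ex 480/em 520 nm). Compound added and read 3 min for agonist activity, followed by capsaicin at EC20 final and 2 min further read for enhancement.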
Sfp PPTase inh: inhibitors of Bacillus subtilis Sfp phosphopantetheinyl transferase; Q9F4F7; 310,000 tested, 3.5% active; Potency, µM, without a hit: max response, negative = inhibition, usual class: inhibitors; Biochemical Sfp PPTase activity, qHTS; active means well fitted inhibition curve with a large enough effect; inconclusive means small, poorly fitted or top-dose-only effect, or another doubt; inactive means no such curve, though single readings can be large or run the other way;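 further: the enzyme is Sfp with the accession as filed and its product quenches rhodamine fluorescence; potency means the concentration at half of the fitted maximal effect; 0% = enzyme reaction without inhibitor and -100% = no enzyme wells; top concentration of the series not given in the record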
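Sfp 15 nM + cpd, 15 min RT; start w/ rhodamine-CoA 5 uM, BHQ-2-YbbR 12.5 uM (final); 50 mM Hepes pH 7.6, 10 mM MgCl2, 0.01% NP-40, 0.01% BSA; read 525/598 nm at 0 and 30 min.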
gsp antagonist: gsp mutant antagonism | gsp-mutant cells, cAMP HTRF, 30 min; control for the full effect not named in the record | Potency, µM (titrated, usually from 76.9 µM), inactives show top-dose activity change, negative = inhibition, most hits filed as inhibitors | 340,000 tested, 0.4% active | AID 624288; active = falling curve of any shape with a large fitted effect; inconclusive = falling curve, mostly with a smaller effect; inactive = flat or rising curve; cell line not stated here;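 further: intracellular cAMP measured with PDE inhibitor Ro 20-1724 present during compound exposure; potency means the concentration at half of the fitted maximal effect; on the % scale 0 is the no-effect control and ±100 the full control effect; nearly all actives have a fitted effect of over 65% in size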
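HTRF cAMP read-out (cAMP-d2 plus anti-cAMP antibody-K in lysis buffer, 30 min RT). Before lysis, cells are exposed to compounds with […] for 30 min at 37C in DPBS containing Ca/Mg, BSA and Tween 20.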
CtBP-E1A inh: inhibitors of CtBP/E1A interaction. AlphaScreen GST-E1A/His-CtBP binding, 1536-well; stronger effect = lower value; control for the full effect not named in the record. activity change, % (test concentration not listed). AID 651724. 340,000 tested, 0.49% active; in the data active means activity change below about -65%; inconclusive means about -30% to -65%; inactive means above about -30%; further: on the % scale 0 is the no-effect control and ±100 the full control effect; compound concentration not given in the record
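In 5 uL wells, 23 nL compound meets equimolar GST-E1A and His-CtBP (5X stock 125 nM each) for 2 h, 37 °C. Beads (5X, 50 ug/mL) then 1 h, 37 °C, dark.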
Menin MLL FP FL: inhibitors of human menin-MLL interaction, wild-type MLL peptide. Fluorescence polarization, fluorescein-MLL peptide displacement from menin. FP activity change, % at 61.4 µM. 290,000 tested, under 10 active; inconclusive = falling polarisation curve, or a change in total fluorescence; inactive = total fluorescence flat and polarisation flat or rising; no compound was filed as active; the % refers to the polarisation; negative = inhibition;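 further: % of control where 0% means no effect; inhibitors lower the polarisation; unlabelled MLL peptide was the positive control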
ClpP mod: qHTS Assay for Activators of ClpP. 340,000 tested, 1.9% active. ATP-dependent Clp protease proteolytic subunit (Bacillus subtilis (strain 168)), P80244. purified B. subtilis ClpP, FRET peptide cleavage, 20 min. Potency, µM (series often up to 57.5 µM), for the others: at the highest dose activity change, negative = active; active = well fitted falling curve with a large enough effect; inconclusive = small, poorly fitted or top-dose-only effect; inactive = no such curve, though single readings can be large or run the other way; further: potency means the concentration at half of the fitted maximal effect; the source files actives as falling curves though it sought activators and does not explain the sign; nearly all actives have a fitted effect of over 65% in size; many hits overshoot -100%
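FRET quenching reversal measured ClpP activation: 10 microg/mL B. subtilis ClpP at pH 8 with the FRET-FV decapeptide, read at 430 nm after 320 nm excitation. The 20-min minus 0-min signal was scaled between DMSO/no-enzyme wells and ADEP (5.8 microM final).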
The depositor's hits bear a star; ? = inconclusive; . = not tested or not shown; [ ] = dose if it differs, or a comment.

SMILES | gsp ag | TRPV1 PAM | Sfp PPTase inh | gsp antagonist | CtBP-E1A inh | Menin MLL FP FL | ClpP mod
COCCn1c(SCC(=O)NCC2CCCO2)nc2c([nH]c3ccccc32)c1=O (centres undefined) | 9%[15.4 µM] | 4 | 13% | 7% | 6 | . | -9.5%
O=C(CSc1nc2ccccc2o1)Nc1nc2ccccc2s1 | 6% | 10 | 0% | 4% | 9 | 10 | 11%
CCN(c1ccccc1C(=O)O)S(=O)(=O)c1ccc2[nH]c(=O)[nH]c2c1 | ? | 9 | 12% | 3% | 7 | -3.3 | -23%
C#CCOCCOCCOCCNc1nc(N2CCN(C(=O)[C@H](CCC(=O)O)n3cc([C@@H](N)CC(N)=O)nn3)CC2)nc(N2CCN(C(=O)[C@H](CCC(=O)O)n3cc([C@@H](N)CC(N)=O)nn3)CC2)n1 | . | . | . | 8% | -16 | . | -2.3%
COc1ccc(NC(=O)CSc2nc(C)cs2)cc1OC | -28% | -6 | 14% | -24% | 0 | 1.5 | -2.1%
O=C(NCc1nnc(SCC(=O)N2CCCc3ccccc32)n1-c1ccccc1)c1cccc2ccccc12 | 15% | 7 | -3% | -13% | -5 | 1.6 | -13%
CCCn1c(N)c(C(=O)CSc2nc(C3CC3)n(-c3ccccc3)n2)c(=O)[nH]c1=O | -12%[15.4 µM] | . | . | 4% | 7 | . | ?
O=C(c1cccnc1)N1CCN(CCCc2ccccc2)CC1 | -14% | ? | ? | -6% | 10 | 0.1 | 1.1%
O=C(c1cc2ccccc2o1)N1CCN(c2cccc(Cl)c2)CC1 | -6% | -5 | 19% | 18% | 0 | . | -0.4%
Cc1ccc(C)c(N(C(=O)CNC(=O)c2ccco2)C(C(=O)NC2CCCCC2)c2cccnc2)c1 (centres undefined) | -3%[15.4 µM] | 3 | 29% | 3% | -5 | -0.4 | 0.5%
COc1cccc(NC(=O)C(C#N)Cc2ccncc2)c1 (centres undefined) | -7% | -1 | 13% | 9% | -9 | -0.5 | 4.8%
CCNC(=O)c1sc(=S)n(-c2ccc(C)cc2)c1N | 9% | 11 | 56µM* | 3% | -6 | 1.7 | -0.4%
CCOc1ccc(NC(=O)N2CCC(NC(=O)c3ccco3)CC2)cc1 | 7% | -10 | 10% | 7% | 3 | 0.9 | 2.5%
Nc1nnn(Cc2ccccc2)n1 | -41%[inhibitor] | -5 | 22% | 2% | 5 | 0.6 | ?
O=C(/C=C/c1cccc(F)c1)N(c1ccccn1)C1CCCCC1 | -19% | -9 | 22% | 1% | 5 | 5.0 | -0.6%
O=C(NCc1ccco1)c1ccc2ccccc2n1 | -7%[15.4 µM] | 3 | 19% | 7% | -1 | -1.1 | .
Cc1ccc(-c2nc(C)c(C(=O)O)s2)cc1 | ? | 9 | 26% | -20% | 1 | 0.6 | .
O=C(NCc1ccco1)C(=O)c1cn(CC(=O)N2CCCCCC2)c2ccccc12 | 1%[15.4 µM] | -20 | ? | -12% | 2 | ? | .
Cc1cccc(NC(=S)Nc2c(C)n(C)n(-c3ccccc3)c2=O)c1C | -3% | 10 | -15% | 7% | 12 | 2.6 | 1.6%
CC(=O)Nc1ccc(C(=O)N/C(=C/c2ccccc2)C(=O)Nc2cccc(C(=O)O)c2)cc1 | -5% | 5 | -1% | -8% | -6 | -0.7 | .
C[C@H](NC(=O)c1ccccc1Cl)C(=O)NCc1cccs1 | 5% | -2 | 11% | 1% | . | -0.4 | -1.0%
Cc1ccc(C(=O)CSc2ccc(-c3ccncc3)nn2)cc1 | 10%[15.4 µM] | -24 | -37% | -5% | 8 | 10.0 | .

In a second layout: 4 of the compounds above
Cc1cccc(NC(=S)Nc2c(C)n(C)n(-c3ccccc3)c2=O)c1C
  gsp ag = -3%
  TRPV1 PAM = 10
  Sfp PPTase inh = -15%
  gsp antagonist = 7%
  CtBP-E1A inh = 12
  Menin MLL FP FL = 2.6
  ClpP mod = 1.6%
Cc1ccc(-c2nc(C)c(C(=O)O)s2)cc1
  gsp ag = ?
  TRPV1 PAM = 9
  Sfp PPTase inh = 26%
  gsp antagonist = -20%
  CtBP-E1A inh = 1
  Menin MLL FP FL = 0.6
  ClpP mod = .
O=C(c1cc2ccccc2o1)N1CCN(c2cccc(Cl)c2)CC1
  gsp ag = -6%
  TRPV1 PAM = -5
  Sfp PPTase inh = 19%
  gsp antagonist = 18%
  CtBP-E1A inh = 0
  Menin MLL FP FL = .
  ClpP mod = -0.4%
C[C@H](NC(=O)c1ccccc1Cl)C(=O)NCc1cccs1
  gsp ag = 5%
  TRPV1 PAM = -2
  Sfp PPTase inh = 11%
  gsp antagonist = 1%
  CtBP-E1A inh = .
  Menin MLL FP FL = -0.4
  ClpP mod = -1.0%

Ordered by formula weight (lowest first): six of the compounds above.
SMILES | gsp ag | TRPV1 PAM | Sfp PPTase inh | gsp antagonist | CtBP-E1A inh | Menin MLL FP FL | ClpP mod
CCNC(=O)c1sc(=S)n(-c2ccc(C)cc2)c1N | 9% | 11 | 56µM* | 3% | -6 | 1.7 | -0.4%
O=C(c1cccnc1)N1CCN(CCCc2ccccc2)CC1 | -14% | ? | ? | -6% | 10 | 0.1 | 1.1%
CCOc1ccc(NC(=O)N2CCC(NC(=O)c3ccco3)CC2)cc1 | 7% | -10 | 10% | 7% | 3 | 0.9 | 2.5%
O=C(NCc1ccco1)C(=O)c1cn(CC(=O)N2CCCCCC2)c2ccccc12 | 1%[15.4 µM] | -20 | ? | -12% | 2 | ? | .
Cc1ccc(C)c(N(C(=O)CNC(=O)c2ccco2)C(C(=O)NC2CCCCC2)c2cccnc2)c1 (centres undefined) | -3%[15.4 µM] | 3 | 29% | 3% | -5 | -0.4 | 0.5%
O=C(NCc1nnc(SCC(=O)N2CCCc3ccccc32)n1-c1ccccc1)c1cccc2ccccc12 | 15% | 7 | -3% | -13% | -5 | 1.6 | -13%

From PubChem
